PINK1 expr mod = A Quantitative High throughput Screen to Identify Chemical Modulators of PINK1 Expression; hit rate 0.2% among 410,000; PINK1 immunofluorescence, high-content cytometry, 24 h; Potency, µM (titrated, usually from 76.6 µM), without a hit: at the highest dose activation (PINK1 increase), hits mostly activators; active = well fitted activation curve with a large enough effect; inconclusive = small, poorly fitted or top-dose-only effect; inactive = flat fitted curve, though single readings scatter; cell line not stated here;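 also: potency is read from the fitted curve at half-maximal effect; % of control where 0% means no effect; nearly all actives have a fitted effect of over 65% in size; a mitochondrial uncoupler was the plate control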
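PINK1 protein level read as immunofluorescence by microplate cytometer in a fixed, stained stable cell line after 24 h exposure to five compound concentrations, with CCCP as control.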
TRPML1 inh = qHTS for Inhibitors of the Human Mucolipin Transient Receptor Potential 1 (TRPML1); Mucolipin-1 (Homo sapiens), Q9GZU1; TRPML1-inducible cells, Ca2+ dye fluorescence, FDSS; stronger effect = lower value; inhibition of EC80 agonist-evoked calcium signal; activity change, negative = inhibition, % (concentration not given with the values); hit rate 0.02% among 390,000; in the data active means activity change below about -50%; inconclusive means about -30% to -50%; inactive means above about -30%;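 also: stimulus is agonist 54-4 at its EC80 concentration; % is scaled to controls: 0 for no effect and ±100 for the full control effect; compound concentration not given in the record; the text of the record puts the active cut at -80%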
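Calcium fluorescence in TRPML1-DL cells induced overnight with Tet: a 110 s read after compound pin addition, then a 110 s antagonist read after challenge with 54-4 at 4 uM final (EC80).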
Sfp PPTase inh = qHTS Assay for Inhibitors of Bacillus subtilis Sfp phosphopantetheinyl transferase (PPTase) | Biochemical Sfp PPTase activity, qHTS | Potency, µM, inactives show max response, negative = inhibition, hits mostly inhibitors | hit rate 3.5% among 310,000 | AID 1490, 2009; active = well fitted inhibition curve with a large enough effect; inconclusive = small, poorly fitted or top-dose-only effect, or another doubt; inactive = no such curve, though single readings can be large or run the other way;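 also: the enzyme is Sfp with the accession as filed and its product quenches rhodamine fluorescence; potency is read from the fitted curve at half-maximal effect; 0% = enzyme reaction without inhibitor and -100% = no enzyme wells; top concentration of the series not given in the record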
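Fluorescence-quenching assay: 15 nM Sfp-PPTase preincubated 15 min at room temperature with compound, then 5 uM rhodamine-CoA and 12.5 uM BHQ-2-labelled YbbR peptide added. Fluorescence (ex 525/em 598 nm) read at start and after 30 min; difference gives rate.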
Menin-MLL FL inh = qHTS Assay for Inhibitors Targeting the Menin-MLL Interaction in MLL Related Leukemias: Competition With Fluorescein Labeled MLL-derived Peptide | Fluorescence polarization, fluorescein-MLL peptide displacement from menin | 290,000 tested, under 10 active | FP activity change, % at 61.4 µM | AID 1766, 2009; inconclusive = falling polarisation curve, or a change in total fluorescence; inactive = total fluorescence flat and polarisation flat or rising; no compound was filed as active; the % refers to the polarisation; negative = inhibition;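 also: % of control where 0% means no effect; inhibitors lower the polarisation; unlabelled MLL peptide was the positive control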
TRPML1 agonist = qHTS for Agonists of the Human Mucolipin Transient Receptor Potential 1 (TRPML1); Mucolipin-1 (Homo sapiens), Q9GZU1; TRPML1-expressing cells, Ca2+ dye fluorescence, FDSS; host cell line not named in the record; reference of the full effect not given here; activation, % (test concentration not listed); hit rate 0.12% among 410,000; in the data active = activation above about 50%; inconclusive = about 30% to 50%; inactive = below about 30%; also: 0% is about no effect; the text of the record puts the active cut at 80%
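TRPML1-DL cells, Tet-induced overnight (~16 h, 37 degrees C), loaded 45-90 min at room temperature with Ca8 no-wash calcium dye plus quencher. FDSS fluorescence: 10 s baseline, compound pin-transfer, 110 s agonist read, then EC80 54-4 (4uM final) and 110 s antagonist read.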
ClpP mod = qHTS Assay for Activators of ClpP; ATP-dependent Clp protease proteolytic subunit (Bacillus subtilis (strain 168)), P80244; purified B. subtilis ClpP, FRET peptide cleavage, 20 min; Potency, µM (doses to about 57.5 µM), for inactives: at the highest dose activity change, negative = active; hit rate 1.9% among 340,000; active = well fitted falling curve with a large enough effect; inconclusive = small, poorly fitted or top-dose-only effect; inactive = no such curve, though single readings can be large or run the other way; also: potency is read from the fitted curve at half-maximal effect; the source files actives as falling curves though it sought activators and does not explain the sign; nearly all actives have a fitted effect of over 65% in size; many hits overshoot -100%
Target sequence (P80244 whole entry, looked up): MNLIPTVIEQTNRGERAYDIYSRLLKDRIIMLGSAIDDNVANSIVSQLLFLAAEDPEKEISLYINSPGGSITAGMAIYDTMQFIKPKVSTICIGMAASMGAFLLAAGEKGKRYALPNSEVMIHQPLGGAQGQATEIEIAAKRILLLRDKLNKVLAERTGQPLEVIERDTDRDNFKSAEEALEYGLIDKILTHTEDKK
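Buffer: 100 mM Tris/HCl pH8, 100 mM KCl, 0.05% low protease BSA, 2.5% glycerol, 0.01% Tween-20. ClpP 10 microg/mL final; 20 min RT; delta FRET normalized to ADEP and DMSO controls.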
TRPV1 PAM = HTS Assay for Compounds that Act as Potentiators of the Vanilloid Receptor 1; Transient receptor potential cation channel subfamily V member 1 (Homo sapiens), Q8NER1; TRPV1-expressing cells, Fluo-8 calcium influx, capsaicin EC20 potentiation; host cell line not named in the record; control for the full effect not named in the record; potentiation, % at 8.33 µM; hit rate 0.02% among 320,000; active means potentiation above 80%; inconclusive means 30% to 80%; inactive means below 30%; also: 0% is about no effect
Target sequence (Q8NER1 whole entry, looked up): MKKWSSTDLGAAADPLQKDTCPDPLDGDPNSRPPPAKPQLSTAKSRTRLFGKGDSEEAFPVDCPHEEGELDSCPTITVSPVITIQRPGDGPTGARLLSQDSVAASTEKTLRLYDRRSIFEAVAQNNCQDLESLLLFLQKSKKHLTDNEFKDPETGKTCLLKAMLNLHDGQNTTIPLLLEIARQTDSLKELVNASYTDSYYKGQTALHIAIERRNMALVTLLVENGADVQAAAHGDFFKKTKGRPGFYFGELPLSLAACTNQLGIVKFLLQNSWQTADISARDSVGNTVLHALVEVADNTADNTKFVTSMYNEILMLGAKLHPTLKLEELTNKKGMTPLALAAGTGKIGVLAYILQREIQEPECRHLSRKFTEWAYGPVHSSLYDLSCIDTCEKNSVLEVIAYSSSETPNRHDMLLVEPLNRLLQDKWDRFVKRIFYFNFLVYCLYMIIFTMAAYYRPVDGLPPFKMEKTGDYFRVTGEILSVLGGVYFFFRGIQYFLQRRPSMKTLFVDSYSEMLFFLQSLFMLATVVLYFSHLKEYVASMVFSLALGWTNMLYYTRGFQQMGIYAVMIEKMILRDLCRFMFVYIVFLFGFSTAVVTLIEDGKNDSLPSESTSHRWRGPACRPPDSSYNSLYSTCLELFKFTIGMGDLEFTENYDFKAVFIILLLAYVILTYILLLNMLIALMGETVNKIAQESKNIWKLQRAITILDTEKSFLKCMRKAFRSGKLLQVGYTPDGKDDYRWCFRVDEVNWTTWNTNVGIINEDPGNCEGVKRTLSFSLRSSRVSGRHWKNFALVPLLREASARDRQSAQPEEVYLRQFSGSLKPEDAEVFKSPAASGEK
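TRPV1-expressing cells were cultured overnight at 35.5C and loaded with Fluo-8 calcium dye for 40 to 90 min at room temperature. After a 10 s baseline, compound was added and calcium influx was read kinetically for 3 min (ex 480/em 520 nm).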
The depositor's hits bear a star; u = inconclusive; x = no result given; [ ] = dose if it differs, or a comment.

SMILES	PINK1 expr mod	TRPML1 inh	Sfp PPTase inh	Menin-MLL FL inh	TRPML1 agonist	ClpP mod	TRPV1 PAM
Nc1nonc1-c1nc2ccccc2n1Cc1ccccc1	3.9%	-15	-9%	10	-0.3	7.4%	6
Cc1cccc(CNC(=O)C2CCC(CNS(=O)(=O)c3ccc4c(c3)CCCC(=O)N4)CC2)c1 (configuration not stated)	-0.3%	6	x	x	-1.5	-2.5%	x
Cc1ccc(Cl)cc1N1CCN(C(=O)C2CCN(S(=O)(=O)c3cnc[nH]3)CC2)CC1	0.6%	12	14%	5.8	0.1	1.2%	14
CN1CCN(CC#CCC2(O)c3ccccc3-c3ccccc32)CC1	1.6%	6	u	-0.8	-0.1	-0.3%	5
O=C(CCNS(=O)(=O)c1cccs1)NC1CCN(Cc2ccccc2)CC1	-1.3%	-1	-7%	1.0	0.3	x	-6
Fc1ccccc1-c1nc2c(s1)CCc1onc(-c3ccc(Br)cc3)c1-2	1.6%	-5	x	x	2.6	-9.3%	x
CC(C)C(=O)Nc1ccc(Cl)cc1-c1nc2ccccc2[nH]c1=O	0.8%	9	13%	4.1	-0.4	x	23
Nc1nc(-c2ccc(-n3nncc3-c3ccco3)cc2)cs1	4.9%	-4	-3%	-2.2	-0.4	-6.2%	14
Cc1cccc(OCC(=O)OCc2cc(=O)n3nc(C4CCCCC4)sc3n2)c1	0.9%	-3	x	x	1.2	-4.8%	x
C=CCc1ccc(OCC(O)CN2CCC(Cc3ccccc3)CC2)c(OC)c1 (configuration not stated)	u	1	1%	1.8	0.0	-2.3%	-16
Cc1cc(C)c2oc(-c3ccc(NC(=O)COc4ccccc4C)cc3)nc2c1	-0.3%	0	x	x	-0.1	4.7%	x
Cc1ccc(NC(=O)CN2C(=O)C(c3ccc(F)cc3)=NC23CCCCCC3)c(C)c1	0.6%	2	x	x	0.8	-1.2%	x
COc1ccc2[nH]c(C(=O)N/N=C/c3ccc(O)cc3O)cc2c1	3.4%	23	3%	22	3.7	-5.5%	6
O=C(Nc1ccc(Oc2ccccc2)cc1)c1ccc(F)c(S(=O)(=O)N2CCN(c3cccc(Cl)c3)CC2)c1	-1.6%	-30	x	x	0.5	-10.0%	x
CCC1CN(C(=O)N2CCC(C(=O)NCCc3ccc(C)cc3)CC2)c2ccccc2O1 (configuration not stated)	-0.8%	9	x	x	2.1	0.8%	x
Cc1c(C(=O)NC2CCCc3ccccc32)oc2ccccc12 (configuration not stated)	0.1%	3	-15%	2.0	2.3	-2.6%	-6
Cc1ccc(Cn2nnc3c(=O)[nH]c(C4CCN(S(=O)(=O)c5cc(C)ccc5C)CC4)nc32)cc1	0.4%	-3	-10%	5.9	0.1	0.6%	-7
COc1ccc(-c2ccc(C)cc2)cc1[C@H]1[C@@H]2C=CCC[C@@]2(C)C(=O)N1Cc1ccccc1	u	25	-9%	-0.1	2.5	u	u
O=C(NCCc1ccccc1)c1cc(-c2cccc(Cl)c2)on1	3.6%	-27	x	x	-0.6	0.0%	x
CC(C)(C)NC(=O)C(c1ccco1)N(C(=O)Cn1nnc(-c2ccc(F)cc2)n1)c1ccccc1 (configuration not stated)	8.1%[38.3 µM]	1	x	x	1.0	0.5%	x
NC12CCc3c(no[n+]3[O-])C1(O)CC(c1ccccc1)=[N+]2[O-] (configuration not stated)	x	2	0%	0.3	-0.5	0.9%	-4
Cc1ccc(S(=O)(=O)N2CCN(C(=O)c3ccccc3Cc3ccccc3)CC2)c(C)c1	0.7%	27	0%	1.9	-0.5	1.0%	5
CCC(C(=O)NCc1ccco1)N(C(=O)CNS(=O)(=O)c1ccccc1)c1ccc(OC)cc1 (configuration not stated)	-0.6%[38.3 µM]	-5	-2%	-1.7	-0.2	-1.0%	4
COc1ccc(CCNC(=S)NC(=O)c2ccccc2)cc1OC	3.1%[38.3 µM]	30	-27%	1.1	2.7	-2.2%	-14
CC(=O)C1C(=O)c2c(cccc2[N+](=O)[O-])C1=Nc1ccc(S(N)(=O)=O)cc1 (configuration not stated)	-2.0%	3	u	2.2	0.5	1.4%	15
COCCNC(=O)c1ccc(C(=O)NCCOC)s1	4.0%[38.3 µM]	-1	13%	3.0	0.6	1.5%	18
C[C@H](CO)N1C[C@H](C)[C@@H](CN(C)C(=O)c2cnccn2)Oc2ncc(Br)cc2C1=O	2.3%	5	x	x	0.3	2.3%	x
Cc1ccc(SCC(=O)NNC(=O)c2cncc(Br)c2)cc1	-0.7%	-8	x	x	-0.6	1.3%	x
CCOC(=O)c1c(C)[nH]c(C)c1S(=O)(=O)N(C)CC(=O)Nc1ccc(C)c(F)c1	-0.6%	-1	x	x	-0.9	-0.3%	x
Cc1cc(Oc2ncccc2[N+](=O)[O-])c2cc(Cl)ccc2n1	1.5%	16	25%	1.9	3.1	x	-5
Cc1cc(C)cc(NC(=S)/C(=C(\[O-])c2ccc(Cl)cc2Cl)[n+]2ccc(C(C)(C)C)cc2)c1	5.3%	-8	25%	2.0	0.9	0.0%	5
COCCNCC(=O)Nc1ccccc1Sc1ccccc1	-0.2%	8	56µM*	0.0	1.2	1.7%	5
COc1cc(OC)c(C2=NOC(C(=O)Nc3cc(C)nn3-c3ccccc3)C2)cc1Cl (configuration not stated)	0.4%[38.3 µM]	-13	-6%	-0.9	0.6	-12%	u
Cc1ccc(C=NNC(=O)C(=O)Nc2ccc(Cl)c([N+](=O)[O-])c2)cc1	2.3%	x	x	x	-0.3	-0.5%	x
O=C(Nc1nc2c(F)cccc2s1)c1ccc2c(c1)OCCO2	2.0%	26	x	x	-0.8	4.1%	x
CC(C)c1nnc(NC(=O)c2nc(SCc3ccc(F)cc3)ncc2Cl)s1	2.3%	-11	x	x	1.1	0.0%	x

Two compounds picked at random from those above:
SMILES	PINK1 expr mod	TRPML1 inh	Sfp PPTase inh	Menin-MLL FL inh	TRPML1 agonist	ClpP mod	TRPV1 PAM
Cc1ccc(SCC(=O)NNC(=O)c2cncc(Br)c2)cc1	-0.7%	-8	x	x	-0.6	1.3%	x
Cc1cc(C)cc(NC(=S)/C(=C(\[O-])c2ccc(Cl)cc2Cl)[n+]2ccc(C(C)(C)C)cc2)c1	5.3%	-8	25%	2.0	0.9	0.0%	5

Other structures follow:
SMILES	PINK1 expr mod	TRPML1 inh	Sfp PPTase inh	Menin-MLL FL inh	TRPML1 agonist	ClpP mod	TRPV1 PAM
Cn1c(SCc2ccccc2F)nnc1-c1ccccn1	1.7%	14	-17%	1.5	-0.9	1.0%	6
CCOc1ccc(S(=O)(=O)NN=C(C)c2cccnc2)cc1	2.4%	-8	x	x	4.6	-1.4%	x
O=C(Cc1cccs1)N1CCCC(c2nc3c(nnn3Cc3cccc(Cl)c3)c(=O)[nH]2)C1 (configuration not stated)	2.1%[38.3 µM]	0	-10%	3.2	0.0	1.1%	3
CC(O)[C@H]1CNCCN1CCc1cc(C(F)(F)F)cc(C(F)(F)F)c1 (some centres not stated)	2.1%	11	x	x	0.3	-3.5%	-3
COc1ccc(NC(=O)c2cc(-c3ccccc3O)no2)cc1	-0.7%	-9	x	x	-0.9	0.3%	x
CC(C)c1ccc(NC(=O)COC(=O)[C@H](CCC(N)=O)NC(=O)c2ccc(F)cc2)cc1	-1.8%	-8	21%	0.0	0.1	-2.4%	15
CCOc1ccccc1CNC(=O)Cn1cc2c(n1)-c1c(oc(C(=O)N3CCCC3)c1C)CC2	0.4%	-8	x	x	1.7	9.4%	x
C/C(=N\N1C(=O)c2ccccc2NC1c1ccco1)c1ccccc1O (configuration not stated)	-1.9%	12	18%	-1.3	1.3	-1.9%	9
CCOC(=O)Cn1c(=O)oc2cc(S(=O)(=O)NC(C)(C)CC)ccc21	-0.3%	x	9%	9.2	x	-0.5%	20
Cc1ccc2nc(SCC(=O)Nc3oc(C)c4c(C)n[nH]c(=O)c34)[nH]c2c1	0.5%	-6	x	x	-0.2	-2.9%	-11
CCc1ccccc1NC(=O)Cn1c(=O)n(CCc2ccccc2)c(=O)c2sc3ccccc3c21	2.3%	13	x	x	-0.6	-16%	x
CSCCC(NC(=O)c1ccccc1)C(=O)O (configuration not stated)	-1.5%	-22	17%	-3.3	-0.1	x	-2
O=C(CN1C(=O)NC2(CCCCCC2)C1=O)NCc1ccco1	0.7%	2	4%	-2.7	-0.5	-0.5%	-5
CC(Cc1ccccc1)NC(=O)CN1C(=O)c2ccccc2S1(=O)=O (configuration not stated)	0.0%	20	15%	x	-0.2	0.3%	u
CCc1noc(C)c1C(=O)NNC(=O)c1ccc(N(CC)CC)cc1	-0.8%	13	x	x	-0.4	-3.3%	-5
CC(=O)N1CCN(S(=O)(=O)c2cccc(C(=O)Nc3ccc(OC(F)F)cc3)c2)CC1	0.9%	-16	-4%	-13	0.0	x	-9
Cc1ccc(C(C2C(=O)CC(C)(C)CC2=O)C2C(=O)CC(C)(C)CC2=O)s1	1.5%	4	50µM*	5.4	1.5	2.5%	x
CCN(CC)c1ccc(/C=N/N2C(C)CCCC2C)c(O)c1 (configuration not stated)	19%	25	2%	-3.6	-0.2	x	0
Cc1ccc(C)c(Cn2c3ccccc3c3cnn(CC(=O)NC(C)CCc4ccccc4)c(=O)c32)c1 (configuration not stated)	8.4%	-3	x	x	0.1	-20%	x
Cc1ccc(-c2noc(-c3nnn(CC(=O)Nc4cc(C)cc(C)c4)c3N)n2)cc1	-0.7%	-15	x	x	0.6	-0.7%	x
CCOCCCN1C(=O)c2[nH]nc(-c3ccccc3O)c2C1c1ccc(CC)cc1 (configuration not stated)	3.8%	8	x	x	2.6	-2.4%	x
CCCCNC(=O)C1(C)CCC(=O)N1CCOC (configuration not stated)	0.6%	x	x	x	-0.3	-2.8%	x
O=C(Cc1n[nH]c(=O)c2ccccc12)Nc1cc(C(F)(F)F)ccc1-n1cncn1	2.9%	-18	x	x	-0.1	-14%	-5
Cc1ccc(OCC(=O)Nc2c(C)nn(-c3ccccc3)c2C)c(Br)c1	-1.4%	33	x	x	1.3	-2.9%	-6
C[C@]12CC(O)C3C(CCC4=CC(=O)CC[C@@]43C)C1CCC2c1csc(-c2ccccc2)n1 (some centres not stated)	5.6%	u	u	u	2.1	-4.3%	7

Assay outcomes as filed in PubChem.
